BJeLR viability: kills HRASV12-expressing BJeLR cells; BJeLR (HRASV12) viability, CellTiter-Glo ATP luminescence, 48 h; reference of the scale not given here; inhibition, % (no concentration beside the values); hit rate 0.17% among 300,000; AID 1554;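 active = replicate mean above 50%; inconclusive = above 50% but judged a plate artefact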;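 note: 50 nL library stock added to about 25 µL; numbers are from one replicate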
ugtP null kill: compounds lethal to S. aureus RN4220 ugtP deletion mutant. OD600 growth, 16 h; some inactives read as strong as hits. growth inhibition, % (no concentration beside the values). hit rate 0.54% among 330,000;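 active = z-score under -3 and OD600 up to 0.15 on both plates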;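 note: plate controls were untreated wells for no effect and antibiotic for full effect; wells of about 80 µL received 100 nL stock; the first replicate is given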
Sa RN4220 lethal: kills Staphylococcus aureus RN4220. hit rate 0.33% among 330,000. inhibition, % (test concentration not listed). S. aureus RN4220 growth, OD600, 16 h;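 active = z-score of -3 or lower and OD600 up to 0.18 on both plates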;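 note: plate controls were untreated cells for no effect and reference antibiotic for full effect; stock transfer was 100 nL into about 80 µL; one replicate is shown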
Mtb hypoxia rep: reduces hypoxia-regulated biosensor signal in M. tuberculosis; M. tuberculosis hypoxia-regulated fluorescent reporter, fluorescence; fluorescence inhibition, % (test concentration not listed); hit rate 0.1% among 300,000; AID 1159583;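 active = 35 to 45% if threefold the growth effect, above 45% if 1.5-fold the growth effect; inactive = the rest, general growth blockers included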;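 note: wells of about 50 µL received 100 nL stock; 0% = vehicle wells and 100% = reference inhibitor wells; whole bacteria with a GFP reporter of the hypoxia response; strong numbers were not always called active; many hits fall short of the cut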
PrP 5UTR inh: suppresses PrP 5' UTR mRNA reporter expression; inhibition, % (concentration not given with the values); cell-based PrP 5' UTR mRNA reporter, plate reader; hit rate 0.35% among 340,000;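 active = every replicate at 50% or more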;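 note: 0 = median of the neutral control wells; tested in H4 reporter cells; numbers are from one replicate; inactives centre near -14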
Autofluor counter: counter-screen for toxin protease inhibitors: compound fluorescence. fluorescence intensity (no concentration beside the values). AID 624483. hit rate 3.1% among 360,000. compound autofluorescence counterscreen, microsphere flow cytometry; hits give high values;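 active = at least 3 SD above the mean of all compounds, about 16000 in these data; inconclusive = too few beads counted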;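 note: 100 nL of 1 mM stock went into each well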
Mtb hypoxia rep growth: further read-out of Mtb hypoxia rep, marked with its call; growth inhibition, %; measured here: M. tuberculosis growth (absorbance);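 0% = vehicle and 100% = reference antibiotic; read after six days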
Active calls of the source: *; ? = inconclusive; · = no result given.

Below each compound: BJeLR viability, ugtP null kill, Sa RN4220 lethal, Mtb hypoxia rep, Mtb hypoxia rep growth, PrP 5UTR inh, Autofluor counter
#1 COc1ccc(CNC(=O)c2ccc(NC(=O)CC3SC(N4CCCC4)=NC3=O)cc2)cc1 (stereo unspecified)
 : -5, 1, 0.2, 3, 3, -16, 10563
#2 Oc1ccccc1-c1cc(-c2ccc3c(c2)OCCO3)n[nH]1
 : 12, 19, 29, 3, 2, -32, 12063
#3 O=C(Nc1ccc(Cl)cn1)Nc1ccccc1F
 : -14, -7, 4.9, 6, 8, -71, 8354
#4 Cc1cc(OC(C)C(=O)NCC2CCCO2)cc(C)c1Cl (stereo unspecified)
 : 4, 12, 5.0, 25, 18, -17, 4179
#5 Cc1cc(C)c(NC(=O)CNC(=O)COC(=O)C2CCN(c3ccc(C(F)(F)F)cn3)CC2)c(C)c1
 : 13, -9, -8.0, 5, -3, -4, 6900
#6 CC(=O)C(=NNc1ccccc1Cl)Sc1nnc(C(O)c2ccccc2)n1-c1ccccc1 (stereo unspecified)
 : ·, -12, 12, 5, 8, ·, ·
#7 CCc1cccc(CC)c1NC(=O)COC(=O)c1ccc2c(c1)S(=O)(=O)c1ccccc1C2=O
 : -25, 10, 4.6, 4, 1, -19, 9148
#8 O=c1c2ccccc2nc(COc2ccccc2)n1N=Cc1c[nH]c2ccccc12
 : ·, 6, 23, -9, -2, ·, ·
#9 Cc1ccc(C)c(NC(=O)c2sc(Cl)nc2C)c1
 : -3, 17, 11, 6, 1, -9, 2096
#10 O=S(=O)(c1ccc(F)cc1)N1CCN(C(=S)NC2CC2)CC1
 : ·, 0, 4.1, -5, 7, -2, 4030
#11 CCOC(=O)c1c(C)[nH]c(C(=O)COC(=O)CNC(=O)c2ccccc2Cl)c1C
 : -5, 5, -0.3, -2, 2, -44, 6317
#12 O=C(CCSCCC(=O)NN=Cc1ccc(F)cc1)NN=Cc1ccc(F)cc1
 : ·, -3, 0.1, 12, 11, -13, 4777
#13 CCc1c(C)nc(N2CCN(c3ccccc3F)CC2)[nH]c1=O
 : -1, 2, 4.2, 2, 11, -8, 3832
#14 O=S(=O)(c1ccc(Cl)cc1Cl)N1CCCC1c1cccnc1 (stereo unspecified)
 : 0, 7, 3.5, 6, -7, -10, 4371
#15 CCOc1ccccc1NC(=O)CCNS(=O)(=O)c1ccc(NC(C)=O)cc1
 : -9, 2, 2.9, 4, 1, -9, 3886
#16 CC(=O)CC(C)(C)n1nnc(-c2ccccc2)n1
 : 6, -1, 6.2, 7, 4, -5, 2866
#17 Cc1nnc(SCc2nc3ccccc3c(=O)n2-c2ccccc2Cl)n1N
 : -11, -1, 0.0, 5, 1, -7, 6037
#18 C#CCNC(=O)C1=C[C@@H](c2csc3ccccc23)C[C@@H](OCc2ccc(CO)cc2)O1
 : -5, ·, ·, ·, ·, -16, 3559
#19 COc1ccc(CCNC(=O)CNCCc2ccc(F)cc2)cc1
 : -1, 3, -1.1, 18, 7, -10, 3103
#20 O=C(Nc1cc(F)ccc1F)C1CCN(S(=O)(=O)c2cccc3nonc23)CC1
 : -3, 1, 3.2, 7, 8, -15, 3385
#21 COc1ccccc1C(=O)NC(=O)COC(=O)Cn1cnc2c1c(=O)n(C)c(=O)n2C
 : -4, 8, 4.7, -4, -13, -12, ?
#22 COCCCNC(=S)N/N=C/c1ccc(O)cc1
 : -3, ·, ·, ·, ·, -19, 3764
#23 CC(C)n1c(N=Cc2c[nH]c3ccccc23)nc2ccccc21
 : ·, 0, -3.6, -5, -2, ·, ·
#24 CCN(CC)S(=O)(=O)c1cccc2nsnc12
 : 4, -3, 3.7, 0, -4, -18, 6214
#25 O=C(NCc1ccccc1F)c1ccncc1
 : -13, 2, 4.9, -1, -10, 10, 2913
#26 COc1ccc(S(=O)(=O)N2CCCC2CNC(=O)C(=O)NCc2ccco2)cc1 (stereo unspecified)
 : 2, 3, -1.7, -2, 9, -12, 5594
#27 CCN(CC)CCNC(=O)CS(=O)Cc1nc(-c2ccccc2Cl)oc1C (stereo unspecified)
 : 2, -3, -4.0, -9, 3, -21, 8506
#28 CCc1ccccc1N1CN(Cc2cccnc2)CNC1=S
 : -6, -5, -2.5, -3, 5, -5, 4185
#29 COCCn1c(=NC(=O)CSCC(=O)N2CCOCC2)sc2cc(C)ccc21
 : -6, 0, 2.7, 11, 6, -38, 5574
#30 COc1ccc(C(=O)Nc2ccc(S(=O)(=O)N3CCc4ccccc43)cc2)cc1
 : 12, -26, -1.5, -7, -1, -10, 16637*
#31 Cc1ccc(C(=O)N(C)CC(=O)Nc2ccc(Cl)c(C(F)(F)F)c2)cc1S(=O)(=O)N1CCCCC1
 : ·, -16, -10, 5, -5, -20, 3575
#32 CNN=Cc1ccc(C#N)cc1
 : ·, 8, 5.6, 18, 13, ·, ·
#33 CCOC(=O)N1CCN(S(=O)(=O)c2ccc(C(=O)Nc3sc4c(c3C(N)=O)CC(C)(C)NC4(C)C)cc2)CC1
 : 5, -2, -2.9, -2, -6, -3, 5924
#34 C/C(=N\NC(=O)C1CCCN(S(=O)(=O)c2ccccc2)C1)c1ccncc1 (stereo unspecified)
 : -9, ·, ·, ·, ·, -25, 2879
#35 CC1=CC2=NCC(O)CN2C=C1 (stereo unspecified)
 : -11, 7, 3.1, -3, 0, -11, 9653
#36 CCOC(=O)c1ccc(P(=O)(c2ccccc2)c2ccccc2)cc1
 : 6, 16, 6.2, 4, -5, -33, 3291
#37 CS(=O)(=O)Nc1ccc(N2CCCCC2)c(Cl)c1
 : 2, 5, 1.1, 2, 1, -17, 23555*
#38 COC(=O)c1ccc(C)c(NC(=O)Cn2cnc3ccccc3c2=O)c1
 : -6, -4, 4.5, -3, -4, -18, 7515
#39 CCOC(=O)Cn1cc(C(=O)c2ccccc2)c2ccccc21
 : -9, 3, 2.1, -3, -7, -1, 3728
#40 Cn1c(=O)[nH]c(=O)c2c1nc(NCCCn1ccnc1)n2Cc1ccccc1
 : -19, 7, 8.5, ·, ·, -10, 3717
#41 O=C(COC(=O)c1n[nH]c2ccccc12)NCc1ccccc1
 : 3, -8, 2.0, -8, 9, -3, 10957
#42 C=CCNC(=O)/C(C#N)=C/c1ccc(C(=O)O)cc1
 : -2, 6, 2.7, -4, -2, -13, 4593
#43 COc1cccc(CN2CCN(CC(=O)Nc3ccccc3Cl)CC2)c1
 : 9, 10, -3.8, ·, ·, -26, 2885
#44 CCCCn1c2ccc(C)cc2c2nnc(SCCN3CCCCC3)nc21
 : 3, 2, -1.7, -3, 8, -11, 4513
#45 COc1ccc(NC(=O)CSc2ncnc3c2cnn3Cc2ccccc2)cc1
 : -2, 0, -3.9, 12, 5, -28, 8621
#46 CCOC(=O)COc1ccc(C2NC(C(=O)O)CS2)cc1 (stereo unspecified)
 : 9, 13, -4.4, 3, 9, -20, 2387
#47 Cc1c(C(=O)N(Cc2cccs2)C2CCS(=O)(=O)C2)oc2ccccc12 (stereo unspecified)
 : 14, -7, 7.6, 0, -3, -38, 6136
#48 COc1cc(N)cc(NC(=O)c2ccncc2)c1
 : 1, -5, -5.9, 15, 4, -30, 2928
#49 O=C(Oc1cc(-c2ccccc2)no1)c1ccc(F)cc1
 : -3, 5, 0.1, ·, ·, -24, 2639
#50 CCCSCCCNC(=O)c1cc2c(s1)CS(=O)(=O)C2
 : -3, -6, -2.7, 2, 11, 1, 7376

(list continues)
Below each compound: BJeLR viability, ugtP null kill, Sa RN4220 lethal, Mtb hypoxia rep, Mtb hypoxia rep growth, PrP 5UTR inh, Autofluor counter
#51 O=C(Nc1ccccc1)c1ccc(NCCN2CCOCC2)c(S(=O)(=O)N2CCOCC2)c1
 : 0, 8, 2.9, 2, 1, -11, 3283
#52 CC(C)c1ccc(NC(=O)C2=NNC(=O)CC2)cc1
 : 6, 2, 3.2, -9, -2, -74, 4591
#53 NC(=O)c1sc2nc(-c3cccs3)ccc2c1N
 : 2, 23, 4.6, 2, -5, -16, 3792
#54 COc1ccccc1N(CC(=O)NCC1CCCO1)C(=O)CCC(=O)Nc1nccs1 (stereo unspecified)
 : -5, -2, 2.3, 3, 5, -19, 3469
#55 O=C(CN1C(=O)NC2NC(=O)NC21)NC1CCCCC1 (stereo unspecified)
 : -15, 8, 3.3, 7, 12, -15, 4432
#56 Cn1c(=O)c2c(nc(NCC3CCCO3)n2Cc2ccccc2)n(C)c1=O (stereo unspecified)
 : 2, -5, 3.6, 4, 9, 3, 2996
#57 O=C(c1cc2cc(C(F)(F)F)ccc2s1)N1CCOCC1
 : -3, 13, 4.6, 10, 2, -11, 4432
#58 N=C1c2ccccc2CN1c1ccc(F)c([N+](=O)[O-])c1
 : -7, 10, 2.8, -1, 7, -7, 4090
#59 Cc1cccc(Nc2nc(N)nc(-c3oc4ccccc4c3C)n2)c1
 : -2, 13, -16, 1, 3, -87, 3948
#60 COc1ccc(C2C(C(=O)O)c3ccccc3C(=O)N2Cc2ccco2)cc1 (stereo unspecified)
 : 6, 0, 3.4, 11, 0, -24, 3523

The last five entries of the part above open the next one.
Below each compound: BJeLR viability, ugtP null kill, Sa RN4220 lethal, Mtb hypoxia rep, Mtb hypoxia rep growth, PrP 5UTR inh, Autofluor counter
#56 Cn1c(=O)c2c(nc(NCC3CCCO3)n2Cc2ccccc2)n(C)c1=O (stereo unspecified)
 : 2, -5, 3.6, 4, 9, 3, 2996
#57 O=C(c1cc2cc(C(F)(F)F)ccc2s1)N1CCOCC1
 : -3, 13, 4.6, 10, 2, -11, 4432
#58 N=C1c2ccccc2CN1c1ccc(F)c([N+](=O)[O-])c1
 : -7, 10, 2.8, -1, 7, -7, 4090
#59 Cc1cccc(Nc2nc(N)nc(-c3oc4ccccc4c3C)n2)c1
 : -2, 13, -16, 1, 3, -87, 3948
#60 COc1ccc(C2C(C(=O)O)c3ccccc3C(=O)N2Cc2ccco2)cc1 (stereo unspecified)
 : 6, 0, 3.4, 11, 0, -24, 3523
#61 O=C(Nc1nc(=O)c2ccccc2s1)c1ccc(F)cc1
 : 7, -4, -2.0, -4, 6, -94, 8432
#62 COc1ccc(CNC(=O)C(C)OC(=O)Cn2cnc3c2c(=O)n(C)c(=O)n3C)cc1 (stereo unspecified)
 : ·, 1, 1.4, -6, 13, 1, 6788
#63 O=C1Nc2ccccc2C1=NN=Cc1cccc(O)c1
 : ·, -5, 4.6, -2, -2, ·, ·
#64 OC1=C(O)c2nc3cc(F)ccc3nc21
 : -6, 14, 3.6, 9, 5, -23, 4217
#65 O=C(NCCc1c[nH]c2ccccc12)C1CCCN(S(=O)(=O)c2ccccc2)C1 (stereo unspecified)
 : 1, 5, 4.7, -8, 8, -18, 4133
#66 Nc1ccc(-c2nc3c(Cl)cc(N)cc3[nH]2)cc1
 : 1, -6, 3.7, -4, 5, 44, 2120
#67 O=C(/C=C/c1ccc2c(c1)OCO2)Nc1cc(S(=O)(=O)N2CCOCC2)ccc1N1CCOCC1
 : -6, 2, 2.7, -7, -1, -3, 2248
#68 CCCN(CCC)S(=O)(=O)c1nc2nc(C)cc(C)n2n1
 : -1, 6, 7.5, -6, 0, -10, 4528
#69 Nc1c(C(=O)NCc2ccco2)c2nc3ccccc3nc2n1CCc1ccccc1F
 : -10, 68, 21, 5, 7, -19, 10070
#70 COc1cccc(CNc2nc3ccccc3n2C(C)C)c1O
 : -4, -1, 3.8, 3, 7, -24, 3685
#71 CN1CCC(OC(=O)C23CCC(C)(C(=O)O2)C3(C)C)CC1 (stereo unspecified)
 : -8, 8, 5.7, 9, 4, -21, 4331
#72 O=C(NCCN1CCOCC1)C1CCN(c2ncnc3c2sc2cccc(F)c23)CC1
 : 11, 5, 1.0, 13, 13, -15, 5640
#73 C/C(=N\NC(=O)C(O)c1ccccc1)c1ccc(Cl)s1 (stereo unspecified)
 : -1, ·, ·, ·, ·, -21, 5052
#74 CN(Cc1nc(Cc2cccc(C(F)(F)F)c2)no1)C1CC(C)(C)NC(C)(C)C1
 : 3, 1, 1.2, -5, -4, -32, 4249

From PubChem

Not a hit list. About 4% of those tested had a hit in this group.
